Bioassay records: PubChem, Broad Institute
A1 inh: blocks A1 activity; MEF A1-2A-BIM cells, caspase-Glo luminescence, 3 h; percent of clofoctol signal, DMSO as zero; caspase activation, % (no concentration beside the values); actives 0.51% (n = 21,000); AID 2241;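 active = most replicate scores above 10, or exactly half above 10 with mean activity above 10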;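 note: effector caspase 3 and 7 activity cleaving a DEVD luciferin substrate; 50 nL library stock added to about 30 µL; numbers are from one replicate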
BJeLR viability: lowers viability of BJeLR cells; AID 2275; BJeLR fibroblasts viability, CellTiterGlo ATP luminescence, 48 h; HRASV12, hTERT and SV40 LT/ST transformed; actives 0.64% (n = 30,000); viability loss activity score, % (no concentration beside the values); in the data active = viability loss activity score above about 50%; about a fifth of its hits are not listed in these tables;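 note: higher score means fewer live cells and less ATP luminescence; stock transfer was 50 or 100 nL into about 30 µL; 0% = vehicle wells and 100% = a reference killing control; one replicate is shown; the record names a cut of 85%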
An asterisk follows results filed as active; . = no result given. The list is partial, so the mix of outcomes need not match the whole.

SMILES | A1 inh | BJeLR viability
COc1ccc(NC(=O)N(C)C[C@@H]2Oc3ccc(NC(=O)C4CCCCC4)cc3C(=O)N([C@H](C)CO)C[C@@H]2C)cc1 | -0.1 | 0.7
c1ccc(CSc2nc3ccccc3n2Cc2ccccn2)cc1 | -2.7 | -3.3
C[C@H](CO)N1C[C@H](C)[C@H](CN(C)Cc2ccc(C(F)(F)F)cc2)Oc2c(NC(=O)C3CC3)cccc2C1=O | . | -6.4
COc1ccc(Cl)cc1NS(C)(=O)=O | -0.1 | 2.1
C[C@H]1CN([C@@H](C)CO)C(=O)c2cc(NC(=O)Cc3cn(C)c4ccccc34)ccc2O[C@H]1CN(C)S(=O)(=O)c1cn(C)cn1 | 0.2 | -1.1
NC(=O)CCCCC1CCSS1 (stereo unspecified) | -0.2 | -0.7
CCN(CC)CCSc1nc2ccccc2c(=S)n1-c1ccccc1 | . | 9.4
C[C@H]1CN([C@@H](C)CO)C(=O)c2cccc(NC(=O)c3ccc(-c4nccs4)cc3)c2O[C@@H]1CN(C)C(=O)Nc1ccc(C(F)(F)F)cc1 | . | -2.6
Cc1noc(C)c1S(=O)(=O)Nc1ccc2c(c1)C(=O)N([C@@H](C)CO)C[C@H](C)[C@H](CN(C)Cc1ccc3c(c1)OCO3)O2 | 0.7 | 1.0
Cc1ccn2cc(CNS(=O)(=O)N(C)C)nc2c1 | -0.5 | -3.9

(further entries)
SMILES | A1 inh | BJeLR viability
C[C@H](CO)N1C[C@H](C)[C@H](CN(C)Cc2ccc(C(F)(F)F)cc2)Oc2ccc(NS(=O)(=O)c3ccc(Cl)cc3)cc2C1=O | -0.5 | 0.8
O=C1C2C(c3ccccc3)C=CC(c3ccccc3)C2C(=O)N1C1CCCCC1 (stereo unspecified) | -0.4 | -0.2
O=C(NCc1ccccc1)C1CC1 | 0.2 | -1.4
C[C@H]1CN([C@@H](C)CO)C(=O)c2cc(NC(=O)Nc3ccccc3)ccc2O[C@H]1CN(C)Cc1ccc2c(c1)OCO2 | 1.1 | 8.2
CC1Cc2nc(SCC(=O)NCc3ccco3)n(Cc3ccccc3)c(=O)c2S1 (stereo unspecified) | . | -2.7
Cc1ccc(S(=O)(=O)Nc2cccc3c2O[C@@H](CN(C)Cc2ccncc2)[C@@H](C)CN([C@H](C)CO)C3=O)cc1 | . | -1.0
COc1ccc(CN(C)C[C@@H]2Oc3c(NS(=O)(=O)c4cn(C)cn4)cccc3C(=O)N([C@H](C)CO)C[C@@H]2C)cc1 | . | 1.9
COc1ccc(S(=O)(=O)N(C)C[C@H]2Oc3ccc(NC(=O)NC(C)C)cc3C(=O)N([C@H](C)CO)C[C@@H]2C)cc1 | 0.5 | -5.4
C[C@H](CO)N1C[C@H](C)[C@@H](CN(C)C(=O)Nc2ccc(F)cc2)Oc2ccc(N(C)C)cc2C1=O | -0.5 | 0.6
N#Cc1ccccc1NC(=O)CCCC(=O)Nc1ccccc1C#N | . | -3.6

The results go on.
SMILES | A1 inh | BJeLR viability
C[C@H](CO)N1C[C@H](C)[C@@H](CN(C)C(=O)Nc2ccc3c(c2)OCO3)Oc2ccc(NC(=O)Nc3ccc(C(F)(F)F)cc3)cc2C1=O | 0.6 | -6.3
CC1CCN(C(=O)CSc2nc3cc4c(cc3c(=O)n2CCC2=CCCCC2)OCO4)CC1 | 1.4 | 3.1
C[C@H]1CN([C@@H](C)CO)C(=O)c2cccc(NC(=O)NC3CCCCC3)c2O[C@@H]1CN(C)Cc1ccc(C(F)(F)F)cc1 | . | -0.4
COC(=O)CNC(c1ccccc1)c1cc(Br)ccc1N=Cc1ccccc1O (stereo unspecified) | -0.2 | 1.8
CCOC(=O)C1CCCN(C(=O)CCc2ccccc2)C1 (stereo unspecified) | -0.5 | 1.5
O=C(Cc1ccccc1)Nc1c2c(nn1-c1ccc(Cl)cc1)CSC2 | 0.3 | -7.9
C[C@@H]1CN([C@H](C)CO)C(=O)c2cccc(NS(=O)(=O)c3ccc(F)cc3)c2O[C@@H]1CN(C)S(=O)(=O)c1cccs1 | . | 0.2
Cc1ccc(S(=O)(=O)N(C)C[C@H]2Oc3c(NC(=O)c4cnccn4)cccc3C(=O)N([C@H](C)CO)C[C@@H]2C)cc1 | . | -1.0
CC(=O)OCC(Cc1ccccc1)NC(=O)C(Cc1ccccc1)NC(=O)c1ccccc1 (stereo unspecified) | -0.4 | 23.8
C[C@@H]1CN([C@H](C)CO)C(=O)c2cc(NS(=O)(=O)c3cccs3)ccc2O[C@H]1CN(C)Cc1ccc(-c2ccccc2)cc1 | 0.3 | -2.3

(next part)
SMILES | A1 inh | BJeLR viability
Cc1nccc2[nH]c(=O)c(C(=O)NCc3ccc(Cl)cc3)cc12 | 0.5 | -11.9
O=C(CC12CC3CC(CC(C3)C1)C2)N1CCC(O)(c2ccc(Cl)cc2)CC1 | . | 3.1
O=C(CSC1=Nc2ccccc2C2=NC(CC(=O)NCc3ccco3)C(=O)N12)NCc1ccco1 (stereo unspecified) | -1.1 | 0.4
CCc1ccc(C2=NNC(=O)CC2)cc1 | -2.4 | 4.3
C[C@H]1CN([C@@H](C)CO)C(=O)c2cccc(NC(=O)C3CCCCC3)c2O[C@H]1CN(C)C(=O)NC1CCCCC1 | . | -1.4
C[C@@H]1CN([C@H](C)CO)C(=O)c2cc(NC(=O)Nc3ccc(C(F)(F)F)cc3)ccc2O[C@H]1CN(C)Cc1ccncc1 | -0.3 | 0.6
C[C@H](CO)N1C[C@H](C)[C@H](CN(C)Cc2ccccc2)Oc2c(NC(=O)C3CCCCC3)cccc2C1=O | . | 4.6
C[C@H]1CN([C@@H](C)CO)C(=O)c2cc(NC(=O)Cn3cnnn3)ccc2O[C@@H]1CN(C)S(=O)(=O)c1cn(C)cn1 | 0.9 | -7.6
O=C(Cc1ccccc1)SC1=NCCS1 | -3.9 | -0.9
C[C@@H]1CN([C@@H](C)CO)C(=O)c2cccc(NC(=O)C3CCCCC3)c2O[C@H]1CN(C)S(=O)(=O)c1cccs1 | . | -2.9

Further entries follow.
SMILES | A1 inh | BJeLR viability
Clc1ccccc1CN1CCN(/N=C/C=C\c2ccco2)CC1 | 0.2 | 5.5
C[C@H](CO)N1C[C@H](C)[C@H](CN(C)C(=O)Nc2ccc3c(c2)OCO3)Oc2ccc(NC(=O)Cc3cn(C)c4ccccc34)cc2C1=O | 0.4 | 1.6
CC(C)(C)c1cc(NC(=O)Nc2ccccc2)no1 | -3.7 | -0.6
O[C@H]1C=C2CCN3Cc4cc5c(cc4C(C23)[C@@H]1O)OCO5 (stereo partly specified) | 0.6 | 39.0
Cc1cc2nn(-c3ccc(Cl)cc3)nc2cc1NC(=O)c1ccco1 | -0.8 | 7.4
CCCN(C(=O)COc1cc(=O)n(C)c2ccccc12)c1ccccc1C | . | -2.2
CNc1cc(=O)n(-c2ccccc2)c(=O)n1-c1ccccc1 | -0.5 | -1.4
C[C@H](CO)N1C[C@H](C)[C@@H](CN(C)C)Oc2ccc(NS(=O)(=O)c3ccc(Cl)cc3)cc2C1=O | -0.2 | 2.3
CCN(CC)CCOC(=O)c1cc(Cl)c(N)cc1OC | 0.2 | -0.1
C[C@H](CO)N1C[C@H](C)[C@H](CN(C)Cc2ccc(C(=O)O)cc2)Oc2ccc(NS(=O)(=O)c3cn(C)cn3)cc2C1=O | 0.0 | -7.5

Going on with the list:
SMILES | A1 inh | BJeLR viability
CCCN(CCC)S(=O)(=O)c1ccc(C(=O)N2CC3CCC(CC3)C2)cc1 | . | -1.7
C[C@H]1CN([C@@H](C)CO)C(=O)c2cc(NS(=O)(=O)c3ccc(F)cc3)ccc2O[C@@H]1CN(C)C(=O)Nc1ccc(C(F)(F)F)cc1 | -0.1 | -5.6
O=C(C(Sc1ccccc1)c1ccccc1)N1CCCc2ccccc21 (stereo unspecified) | -0.4 | 1.1
N#Cc1c(SCC(=O)c2ccccc2)nc2c(c1C(F)(F)F)CCCC2 | . | -7.8
Cc1cccc(C(=O)NN)c1 | . | -1.1
CN(C)CCn1nnnc1SCC1=C(C(=O)O)N2C(=O)[C@@H](NC(=O)Cc3csc(N)n3)[C@H]2SC1 | 0.5 | 2.3
OC1COC(OCC2OC(OCc3ccccc3)C(O)C(O)C2O)C(O)C1O (stereo unspecified) | 0.8 | -8.6
COc1ccc(C(=O)NCc2ccc(C#N)cc2)cc1OC | 0.5 | 3.9
CCOC(=O)C1=C(CC)NC2=C(C(=O)CCC2)C1c1ccccc1OCC (stereo unspecified) | 1.7 | -0.8
O=C1/C(=C/c2ccc(F)cc2)CS/C1=C\c1ccc(F)cc1 | . | -2.6

Some of these compounds in order of molecular weight, smallest number first.
SMILES | A1 inh | BJeLR viability
COc1ccc(C(=O)NCc2ccc(C#N)cc2)cc1OC | 0.5 | 3.9
CCOC(=O)C1=C(CC)NC2=C(C(=O)CCC2)C1c1ccccc1OCC (stereo unspecified) | 1.7 | -0.8
OC1COC(OCC2OC(OCc3ccccc3)C(O)C(O)C2O)C(O)C1O (stereo unspecified) | 0.8 | -8.6
C[C@H]1CN([C@@H](C)CO)C(=O)c2cc(NS(=O)(=O)c3ccc(F)cc3)ccc2O[C@@H]1CN(C)C(=O)Nc1ccc(C(F)(F)F)cc1 | -0.1 | -5.6

Next part:
SMILES | A1 inh | BJeLR viability
C[C@H]1CN([C@@H](C)CO)C(=O)c2cccc(NS(=O)(=O)c3ccc(Cl)cc3)c2O[C@H]1CN(C)Cc1ccc(Cl)c(Cl)c1 | . | -7.0
CCOC(=O)N1CCN(C(=O)CCn2c(=S)[nH]c3cc4c(cc3c2=O)OCO4)CC1 | -0.4 | 5.8
O=C(CSc1nc(-c2ccccc2)nc2c1Cc1ccccc1O2)Nc1ccccc1 | -0.5 | 0.2
CNC[C@H]1Oc2c(NC(=O)C3CCOCC3)cccc2C(=O)N([C@H](C)CO)C[C@@H]1C | . | 1.4
CCCS(=O)(=O)c1c(S(=O)(=O)CCC)c2ccccn2c1C(=O)OC | 0.5 | 3.9
O=C1CCCC2=C1C(c1cccc(Cl)c1)C1C(=O)c3ccccc3C1=N2 (stereo unspecified) | . | 25.1
CS(=O)(=O)N1N=C(c2ccc(Br)cc2)CC1c1cc2ccccc2nc1Cl (stereo unspecified) | 0.3 | -7.5
C[C@@H]1CN([C@H](C)CO)C(=O)c2cc(NC(=O)Cc3ccccc3)ccc2O[C@@H]1CN(C)Cc1ccccc1 | 0.5 | 5.3
COC(NC(=O)c1ccccc1)(C(F)(F)F)C(F)(F)F | 0.9 | -3.5
C[C@H]1CN([C@@H](C)CO)C(=O)c2cc(NC(=O)CCCCCC(=O)Nc3ccccc3N)ccc2O[C@@H]1CN(C)C(=O)Nc1ccc(F)cc1 | . | 4.5

(next part)
SMILES | A1 inh | BJeLR viability
O=C(NCCCN1CCCC1)c1csc2c1CCCCC2 | 0.5 | 3.1
O=C(CSc1nc2ccccc2c(=O)n1CCC(=O)N1CCCCC1)c1ccccc1 | 0.0 | -0.6
COC(=O)c1scc(S(=O)(=O)C(C)(C)C)c1-n1cccc1 | 0.7 | -1.1
O=C(C1CCCN(Cc2ccccc2F)C1)N1CCCCC1 (stereo unspecified) | . | -3.0
COc1ccc(-c2nc(N(C)c3ccccc3)[nH]c(=O)c2C#N)cc1 | -0.1 | 3.1
Cc1noc(C)c1NC(=O)Nc1ccc2c(c1)C(=O)N([C@@H](C)CO)C[C@@H](C)[C@@H](CN(C)S(=O)(=O)c1ccccc1)O2 | -0.4 | 1.8
CN(Cc1cc2ccccc2[nH]c1=O)S(C)(=O)=O | 0.3 | 2.9
C/C(=N\O)C(C)(C)Nc1cc(C(F)(F)F)cc(C(F)(F)F)c1 | -0.5 | 2.5
C[C@@H]1CN([C@@H](C)CO)C(=O)c2cc(NC(=O)NC3CCCCC3)ccc2O[C@H]1CN(C)S(C)(=O)=O | 0.8 | 5.1
C[C@@H]1CN([C@@H](C)CO)C(=O)c2cccc(NC(=O)c3ccc(-c4nccs4)cc3)c2O[C@@H]1CN(C)C(=O)Nc1cccc2ccccc12 | . | -6.3

Shown field by field: part of the list above
O=C(Cc1ccccc1)SC1=NCCS1
  A1 inh: -3.9; BJeLR viability: -0.9

C[C@H](CO)N1C[C@H](C)[C@H](CN(C)C(=O)Nc2ccc3c(c2)OCO3)Oc2ccc(NC(=O)Cc3cn(C)c4ccccc34)cc2C1=O
  A1 inh: 0.4; BJeLR viability: 1.6

Other compounds
SMILES | A1 inh | BJeLR viability
COc1cc(C(=O)Nc2ccc3nc(N4CCN(C)CC4)cc(C)c3c2)cc(OC)c1OC | . | 3.2
Cc1cc(C)c(O)c(C2(O)C(=O)c3ccccc3C2=O)c1 | . | 11.1
O=C(O)c1ccccc1C(=O)NCC1COc2ccccc2O1 (stereo unspecified) | -0.4 | 1.0
C[C@@H]1CN([C@H](C)CO)C(=O)c2cc(NS(=O)(=O)c3ccccc3)ccc2O[C@@H]1CN(C)C | 0.1 | 3.4
C[C@@H]1CN([C@@H](C)CO)C(=O)c2cccc(NC(=O)Nc3ccc4c(c3)OCO4)c2O[C@@H]1CN(C)C | . | 1.9
C[C@@H]1O[C@@H](O[C@H]2[C@H](O)[C@@H](O[C@@H]3O[C@H](CO)[C@@H](O)[C@H](O)[C@H]3O)[C@H](O[C@H]3CC[C@@]4(C)C(=CC[C@@H]5C4CC[C@@]4(C)C5C[C@@H]5O[C@]6(CC[C@@](C)(CO)O6)[C@@H](C)[C@@H]54)C3)O[C@@H]2CO)[C@H](O)[C@H](O)[C@H]1O (stereo partly specified) | 0.2 | -2.4
C[C@H](CO)N1C[C@H](C)[C@@H](CN(C)S(=O)(=O)c2cn(C)cn2)Oc2c(NC(=O)Nc3ccc(C(F)(F)F)cc3)cccc2C1=O | . | -4.7
O=C(O)CC(CC(=O)N1CCN(C(=O)c2ccco2)CC1)c1ccccc1 (stereo unspecified) | . | -0.2
CCc1ccc(C2NC(=O)NC3=C2C(=O)CC(C)(C)C3)cc1 (stereo unspecified) | . | 3.5
O=C(NCCNc1ccc2ccccc2c1)c1ccc2nc3ccc(Cl)cc3c(=O)n2c1 | . | -4.3
CCOC(=O)Cn1c(=O)oc2cc(S(=O)(=O)Nc3cccc(CC)c3)ccc21 | . | 2.1
